Source: PubChem (National Center for Advancing Translational Sciences (NCATS))
RE007 growth inh – qHTS Assay for Inhibitors of the HIV-1 protein Vpr; AID 651644, 2012; Potency, µM (series often up to 92.2 µM), without a hit: top-dose activity change, negative = less growth; hit rate 0.21% among 360,000; S. pombe RE007 Vpr strain, BacTiter-Glo ATP luminescence, 24 h; control for the full effect not named in the record; active = well fitted falling curve with a large enough effect; inconclusive = small, poorly fitted or top-dose-only effect; inactive = no such curve, though single readings can be large or run the other way;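 further: nearly all actives have a fitted effect of over 50% in size; the assay follows cell death caused by Vpr and the record does not say whether a fall means rescue or toxicity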
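Fission yeast strain RE007, carrying one chromosomally integrated HIV-1 vpr copy, was seeded at OD 0.01 in PMG+AL medium with 23 nL pinned compound. After 24 h at 30 °C and 99% humidity, viability was read by BacTiter-Glo luminescence.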
StopGo reporter – High Throughput Screening for Foot and Mouth Disease Virus Antivirals | Potency, µM (top dose mostly 57.9 µM), for inactives: at the top dose signal change, negative = less light | hit rate 1.2% among 410,000 | human cells with a luciferase reporter of 2A StopGo recoding; control for the full effect not named in the record; active = well fitted falling curve with a large enough effect; inconclusive = small, poorly fitted or top-dose-only effect; inactive = no such curve, though single readings can be large or run the other way; tested in HEK293T cells; further: nearly all actives have a fitted effect of over 45% in size; luciferase light after 4 h
An asterisk follows results filed as active; ? = inconclusive; [ ] = another dose, or the depositor's remark. On the % scale 0 is the no-effect control and ±100 the full control effect; potency means the concentration at half of the fitted maximal effect. These rows are one share of the data; the hit share may differ from the screen's.

Preview (4 entries):
Values run as follows: RE007 growth inh	StopGo reporter
> CN(Cc1ccc(Cl)c(Cl)c1)C(C(=O)NCc1ccccc1)c1ccco1 (configuration not stated)
    -8%	-16%
> COc1cc(NC(=O)c2ccc(-c3c(C)noc3C)c3ccoc23)cc(OC)c1OC
    -8%	?
> NC(=O)NN=C1CCC(OCc2ccccc2)CC1CC(=O)O (configuration not stated)
    13%	0%
> CCc1nc2ccc(C(=O)NCCCN3CCCC3=O)cn2c1N(CC)C(=O)NCCc1ccccc1
    9%	0%

The list itself (from the top)
Values run as follows: RE007 growth inh	StopGo reporter
> CN(Cc1ccc(Cl)c(Cl)c1)C(C(=O)NCc1ccccc1)c1ccco1 (configuration not stated)
    -8%	-16%
> COc1cc(NC(=O)c2ccc(-c3c(C)noc3C)c3ccoc23)cc(OC)c1OC
    -8%	?
> NC(=O)NN=C1CCC(OCc2ccccc2)CC1CC(=O)O (configuration not stated)
    13%	0%
> CCc1nc2ccc(C(=O)NCCCN3CCCC3=O)cn2c1N(CC)C(=O)NCCc1ccccc1
    9%	0%
> CC(C)n1[nH]c2ccccc2c1=O
    0%	-16%
> CCN(CC)C(=O)C1=C(C)N(Cc2ccc(C(C)(C)C)cc2)C(=O)C(CC(=O)NCc2ccco2)C1 (configuration not stated)
    -22%	-20%
> COCCCNC1=C(C#N)C(=O)NC(c2cccs2)S1 (configuration not stated)
    ?	-8%
> CC1CC(C)CN(C(C(=O)NC2CCCCC2)c2ccnc3ccccc23)C1 (configuration not stated)
    -7%	-17%
> O=C(NC1CCCCC1)C(C1CC1)n1c(=O)c(-c2cc3ccccc3[nH]2)nc2ccccc21 (configuration not stated)
    0%	-2%
> O=C(Cc1ccc(NC(=O)C2CCCN(C(=O)C3CC3)C2)cc1)Nc1cccc(C(=O)N2CCCCC2)c1 (configuration not stated)
    1%	-16%
> CCN1CCC[C@H]1CNCCCn1cnc2c(SC)ncnc21
    -15%	-9%
> COC(=O)C[C@H]1C=C[C@H](NC(=O)Nc2ccccc2F)[C@@H](CO)O1
    0%	-12%
> O=C(c1cc2ccccc2o1)N1CCN(Cc2nc3ccccc3s2)CC1
    -4%	26%
> CC1=C(C(=O)N(C(C)C)C(C)C)CC(CC(=O)NCc2ccco2)C(=O)N1Cc1ccc(C(C)(C)C)cc1 (configuration not stated)
    -18%	-10%
> CCOC(=O)Oc1c(OC)cc(C(=O)O[C@@H]2C[C@@H]3CN4CCc5c([nH]c6cc(OC)ccc56)[C@H]4C[C@@H]3[C@H](C(=O)OC)[C@H]2OC)cc1OC
    5%	0%
> O=C1NCN(c2ccccc2)C12CCN(C(c1cccs1)c1nnnn1C1CCCCC1)CC2 (configuration not stated)
    14%	-12%
> CC(C)=C(c1ccc(Cl)cc1)c1c(N)ncnc1N
    -21%	-7%
> C#CCN(C[C@@H]1[C@@H](OC(=O)NCc2ccccc2F)[C@@H](OC(=O)NCc2ccccc2F)Cn2c(=O)n(CCCCCC)c(=O)n21)S(=O)(=O)c1ccc(C)cc1
    9%	-9%
> CCNC(=O)C1(C)CCN(C(=O)c2ccc(F)cc2Cl)C1 (configuration not stated)
    4%[18.4 µM]	-13%
> CCOc1ccc(C(=O)N[C@H](C(=O)N2CCN(c3ncccn3)CC2)C(C)C)cc1
    0%	-31%
> CCCNC(=O)C1(C)CCCN(C(=O)c2cccc(OC(C)=O)c2C)C1 (configuration not stated)
    8%	-6%
> COCCNc1nc(Nc2ccccc2Cl)c2sc(-c3ccccc3)cc2n1
    7%	-25%
> CCCCN1C(=O)C(CC(=O)NCc2cccs2)CC(C(=O)N2CCCCCC2)=C1C (configuration not stated)
    5%	-18%
> O=C(OCC(=O)N1CCN(c2ccccc2)CC1)c1cc(F)c(F)cc1Cl
    -9%	0%
> Cc1ccc(S(=O)(=O)N2C[C@]3(O)C[C@@H]4C(=O)N(c5ccccc5)C(=O)[C@@H]4C[C@]3(OC(=O)NC3CC3)C2)cc1
    3%	?
> CCOC(=O)[C@]12Cc3ccccc3[C@H]1N(C1CCCCC1)C(=O)c1cc(OC)ccc12
    ?	10µM*
> CC(=O)c1cccc(-c2ccnc3c2CC(C(=O)NCC2CC2)O3)c1 (configuration not stated)
    6%	-7%
> O=C1Nc2cc(C(=O)NCCN3CCCCCC3)ccc2S/C1=C/c1ccccc1F
    6%	-21%
> O=C1Nc2ccccc2CN2C(=O)c3cc(Cl)ccc3NC(=O)C12 (configuration not stated)
    2%	-1%
> O=C(CNC(=O)c1cc(=O)[nH]c2ccc(S(=O)(=O)N3CCOCC3)cc12)Nc1ccc(F)c(F)c1
    12%	7%

Reformatted as labelled records: entries from further up
> CC(C)n1[nH]c2ccccc2c1=O
  RE007 growth inh: 0%
  StopGo reporter: -16%
> CCN(CC)C(=O)C1=C(C)N(Cc2ccc(C(C)(C)C)cc2)C(=O)C(CC(=O)NCc2ccco2)C1 (configuration not stated)
  RE007 growth inh: -22%
  StopGo reporter: -20%
> COCCCNC1=C(C#N)C(=O)NC(c2cccs2)S1 (configuration not stated)
  RE007 growth inh: ?
  StopGo reporter: -8%
> CC1CC(C)CN(C(C(=O)NC2CCCCC2)c2ccnc3ccccc23)C1 (configuration not stated)
  RE007 growth inh: -7%
  StopGo reporter: -17%

Next section.
Values run as follows: RE007 growth inh	StopGo reporter
> Cc1ccccc1N1CCN(C2CCCN(C(=O)CSc3ccccn3)C2)CC1 (configuration not stated)
    -22%	-16%
> CCN(CC)C(=O)C1=C(C)N(Cc2ccc(F)cc2)C(=O)C(CC(=O)NC(c2ccccc2)c2ccccc2)C1 (configuration not stated)
    -13%	?
> COc1ccc(/C=C/C(=O)OCC(=O)c2cc(C)ccc2C)cc1
    -14%	-23%
> CC1(C(=O)NS(=O)(=O)C2CC2)CCCN(C(=O)COc2ccccc2)C1 (configuration not stated)
    -2%	-3%
> CNc1ccc(/C=C\CCCO)cn1
    -12%[18.4 µM]	37%[activator]
> COc1ccc(C2=Nc3ccccc3N(C(=O)c3ccc(C)cc3)C2C(=O)NCc2ccccc2)cc1 (configuration not stated)
    9%	12%
> CC(C)(C)NC(=O)C(c1ccccc1)n1c(=O)c(-c2ccco2)nc2ccccc21 (configuration not stated)
    -10%	-13%
> CC(C)N1CCC1(C)C(=O)Nc1cc(-c2ccccc2)nn1C (configuration not stated)
    -4%[18.4 µM]	-11%
> C[C@H](CO)N1C[C@H](C)[C@H](CN(C)S(=O)(=O)c2ccc(C#N)cc2)OCc2cnnn2CCCC1=O
    -20%	0%
> COc1ccc(-c2oc3c(c2C#CC(C)(C)O)C(OC)CCC3)cc1 (configuration not stated)
    -7%	0%
> O=C(NCc1cccnc1)c1cc(C2CCCN(C(=O)c3cccc(O)c3)C2)on1 (configuration not stated)
    22%	-10%
> COc1cccc(CCOC(=O)c2c(-c3ccsc3)oc3c2C(OC(C)=O)CCC3)c1 (configuration not stated)
    7%	-13%
> Cc1nc(SCC(=O)Nc2sccc2C(N)=O)c2c(C)c(C)sc2n1
    7%	?
> COCCNc1ncnc2c1ncn2[C@H]1CN(Cc2ccccc2)C[C@@H](CO)O1
    1%	-16%
> CSCCC(NC(=O)c1ccccc1Br)C(=O)NNC(=O)C1COc2ccccc2O1 (configuration not stated)
    -10%	-9%
> CCCCN(C=O)c1c(CC)nc2c(OCCC)cccn12
    -8%	-3%
> Cn1c(NCc2cccnc2)nc2cc(-c3ccc(C(=O)N4CCOCC4)cc3)sc2c1=O
    -23%	-10%
> CCc1ccccc1NC(=O)CNC(=O)c1ccc(S(=O)(=O)NCc2ccco2)cc1
    0%	32%[activator]
> O=C(Cc1cccc(NC(=O)C2CCCN(C(=O)C3CCCCC3)C2)c1)Nc1cccc(C(=O)N2CCCCC2)c1 (configuration not stated)
    -7%	-17%
> Cc1cccc(C)c1-n1nnnc1-c1nc2cc3ccccc3cc2[nH]c1=O
    2%	-23%
> OC[C@@H]1CN(Cc2ccc3c(c2)OCO3)C[C@H](n2cnc3c(NC4CCCC4)ncnc32)O1
    7%	-15%
> CC1(C(=O)NS(=O)(=O)c2ccccc2Cl)CCN1C(=O)C1(c2ccccc2)CCCC1 (configuration not stated)
    -9%[18.4 µM]	1%
> Cc1ccc(S(=O)(=O)CCC(=O)Nc2cc(C)on2)cc1
    7%	-15%
> CCOC(=O)[C@]12CCCC=C1N(Cc1ccco1)C(=O)[C@H](CC(=O)NCCCN1CCCC1=O)C2
    6%	-11%
> CC(=O)NC(c1ccccc1)c1nc(-c2ccccc2C)cs1 (configuration not stated)
    -7%[18.4 µM]	-2%
> Cc1[nH]c2ccccc2c1C(=O)C(=O)NCc1nnnn1-c1cccc(F)c1
    24%	-14%
> CC(C)(C)Cc1c(-c2ccccc2)nc2ccc(Cl)cn12
    0%	-25%
> O=C(NC(c1ccc(F)cc1)c1ccc2ccccc2n1)C1CCN(CCOc2ccc(F)cc2)CC1 (configuration not stated)
    -8%	?
> O=C(C[C@H]1CC[C@H](NC(=O)Nc2ccccc2F)[C@@H](CO)O1)NCc1ccc(-c2ccccc2)cc1
    8%	-21%
> O=C(c1ccccc1)c1ccc(O)c(O)c1O
    -10%	-17%

Reformatted: results already given.
SMILES	RE007 growth inh	StopGo reporter
O=C(c1ccccc1)c1ccc(O)c(O)c1O	-10%	-17%
CCc1ccccc1NC(=O)CNC(=O)c1ccc(S(=O)(=O)NCc2ccco2)cc1	0%	32%[activator]

More records.
Values run as follows: RE007 growth inh	StopGo reporter
> Cc1ccc(NC(=O)c2ccc(OCC3CCCO3)cc2)cc1Cl (configuration not stated)
    -7%	-6%
> CCN1C(=O)[C@H]2[C@@H](c3ccc(C(F)(F)F)cc3)N[C@]3(CCCN(Cc4ccc(Cl)cc4)C3=O)[C@H]2C1=O
    -3%	-12%
> O=C(NC1CCCCC1)C(c1ccc(-c2ccccc2)cc1)n1c(=O)c(-c2ccco2)nc2ccccc21 (configuration not stated)
    -14%	1%
> O=C(NCc1ccccc1)C(c1cc2ccccc2o1)n1c(=O)c(-c2ccco2)nc2ccccc21 (configuration not stated)
    -6%	45%[activator]
> NCC(=O)NCC(=O)NC[C@H]1O[C@@H](n2ccc(=O)[nH]c2=O)[C@H](O)[C@@H]1O
    4%	-11%
> Cc1cc(C)c(-c2c(O)c3ccccc3n(C)c2=O)c(C)c1
    -7%	-16%
> COCCNC(=O)C1(C)CCN(C(=O)c2cc(-c3ccccc3)cs2)C1 (configuration not stated)
    4%	24%
> O=S1(=O)CC(N2CC=CC2)CN1Cc1ccccc1 (configuration not stated)
    -5%	1%
> COc1ccccc1N1CCN(C(=O)c2cc(-c3ccccc3)nc3c2cnn3C(C)C)CC1
    7%	-23%
> CC1(C(=O)NS(=O)(=O)c2ccc(Cl)cc2)CCN1C(=O)c1ccc(C2CCCCC2)cc1 (configuration not stated)
    9%	-6%
> O=c1[nH]cnc2c1ncn2C1CCC(CO)O1 (configuration not stated)
    4%	14%
> COc1ccc(CCNC(=O)CCCn2c(=S)[nH]c3cc4c(cc3c2=O)OCO4)cc1OC
    7%	-10%
> C[C@H](CO)N1C[C@H](C)[C@@H](CN(C)C(=O)Nc2ccccc2F)Oc2ncc(Br)cc2C1=O
    -7%	49%[activator]
> C(=C\c1ccccc1)/CN1CCN(C(c2ccccc2)c2nnnn2-c2ccc3c(c2)OCCO3)CC1 (configuration not stated)
    -7%	-5%
> Cc1ccc(C(O)c2ncc(-c3ccccc3Cl)[nH]2)c(C)c1 (configuration not stated)
    ?	44%[activator]
> Cc1cccc(NC(=O)Oc2ccc(Cl)c3cccnc23)c1
    1%	30%
> CCCCCNC(=O)C1C(=O)Nc2ccccc2C(=O)N1C(C)(C)C (configuration not stated)
    -5%	-1%
> O=C1CCCCCC[C@@H](O)[C@H](O)C[C@H](c2ccccc2)O1
    -8%	-21%
> CCN1C(=O)[C@@H]2[C@H](C1=O)[C@@H]1CC(C(=O)OC)=C[C@@H](C(=O)OC)C3C1=C(C(=O)C3(CC)CC)[C@@H]2C (some centres not stated)
    8%	-16%
> Cn1ncc([N+](=O)[O-])c1C(=O)Nc1ccccc1C#N
    17%	2%
> CCN1C[C@]2(COC)CC[C@H](OC)[C@@]34C5C[C@H]6C(=O)C5[C@](O)(C[C@H]6OC)[C@@](O)(C(OC)C23)[C@@H]14 (some centres not stated)
    14%	-15%
> CCCOc1ccc(F)cc1-c1cc(C(=O)NC(C)C)[nH]n1
    0%	-19%
> CCCc1nc2ccc(Br)cn2c1Cc1cccc(Cl)c1
    -15%	4%
> CC(C)OCCc1cccc[n+]1[O-]
    3%	-18%
> CCCCCCCCCCCCN1[C@@H](CC(C)=O)c2cc(C(F)(F)F)ccc2S1(=O)=O
    -1%	-26%
> C=CC1=C(C(=O)O)N2C(=O)[C@@H](NC(=O)/C(=N/OCC(=O)O)c3csc(N)n3)[C@H]2SC1
    -11%	-24%
> c1ccc(N2[C@@H]3CC[C@H]2c2ccncc2C3)cc1
    0%	-14%
